Compound activity deposited in PubChem BioAssay by National Center for Advancing Translational Sciences (NCATS).
CtBP-E1A inh = qHTS Assay for Inhibitors of the CtBP/E1A Interaction | AlphaScreen GST-E1A/His-CtBP binding, 1536-well; hits give low values; control for the full effect not named in the record | activity change, % (test concentration not listed) | 340,000 compounds, 0.49% hits | AID 651724, 2012; in the data active means activity change below about -65%; inconclusive means about -30% to -65%; inactive means above about -30%; also: % is scaled to controls: 0 for no effect and ±100 for the full control effect
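Homogeneous bead-based format: GST-tagged E1A captured on glutathione donor beads, His-tagged CtBP on nickel acceptor beads; compounds precede bead addition by 2 h at 37 °C.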
TRPML1 agonist = qHTS for Agonists of the Human Mucolipin Transient Receptor Potential 1 (TRPML1) | Mucolipin-1 (Homo sapiens), Q9GZU1 | TRPML1-expressing cells, Ca2+ dye fluorescence, FDSS; host cell line not named in the record; reference of the full effect not given here | activation, % (concentration not given with the values) | 410,000 compounds, 0.12% hits; in the data active = activation above about 50%; inconclusive = about 30% to 50%; inactive = below about 30%; also: 0% is about no effect; the text of the record puts the active cut at 80%
Target sequence (Q9GZU1 whole entry, looked up): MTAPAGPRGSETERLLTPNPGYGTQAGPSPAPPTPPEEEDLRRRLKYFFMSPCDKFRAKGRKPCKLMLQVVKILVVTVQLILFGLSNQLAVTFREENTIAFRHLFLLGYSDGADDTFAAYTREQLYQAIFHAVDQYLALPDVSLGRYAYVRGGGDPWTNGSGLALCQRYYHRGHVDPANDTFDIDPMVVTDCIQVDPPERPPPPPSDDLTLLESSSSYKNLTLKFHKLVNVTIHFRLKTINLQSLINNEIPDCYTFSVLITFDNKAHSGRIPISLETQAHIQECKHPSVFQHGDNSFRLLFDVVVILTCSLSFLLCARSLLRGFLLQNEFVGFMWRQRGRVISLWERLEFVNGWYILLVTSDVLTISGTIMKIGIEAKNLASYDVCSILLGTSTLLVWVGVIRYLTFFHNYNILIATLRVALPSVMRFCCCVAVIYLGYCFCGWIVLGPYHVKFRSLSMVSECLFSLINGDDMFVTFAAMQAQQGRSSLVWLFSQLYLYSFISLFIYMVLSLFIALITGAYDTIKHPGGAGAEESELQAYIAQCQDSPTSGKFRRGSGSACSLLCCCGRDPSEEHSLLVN
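Cells: TRPML1-DL, 1X Tet inducer, ~16 h at 37 degrees C/5% CO2. Dye: ABD Ca8 no-wash + quencher, 45-90 min RT. Read: 10 s baseline, compound add, 110 s agonist phase; 54-4 EC80 (4uM final), 110 s antagonist phase.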
TRPML1 blocker = qHTS for Inhibitors of the Human Mucolipin Transient Receptor Potential 1 (TRPML1) | Mucolipin-1 (Homo sapiens), Q9GZU1 | TRPML1-inducible cells, Ca2+ dye fluorescence, FDSS; hits give low values; inhibition of EC80 agonist-evoked calcium signal | activity change, negative = inhibition, % (concentration not given with the values) | 390,000 compounds, 0.02% hits | AID 624415, 2012; in the data active means activity change below about -50%; inconclusive means about -30% to -50%; inactive means above about -30%;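 also: stimulus is agonist 54-4 at its EC80 concentration; % is scaled to controls: 0 for no effect and ±100 for the full control effect; the text of the record puts the active cut at -80%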
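Calcium fluorescence in TRPML1-DL cells induced overnight with Tet: a 110 s read after compound pin addition, then a 110 s antagonist read after challenge with 54-4 at 4 uM final (EC80).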
Six1-Eya2 blk = qHTS Assay for Inhibitors of the Six1/Eya2 Interaction; Homeobox protein SIX1 (Homo sapiens) + Protein phosphatase EYA2 (Homo sapiens), …; AlphaScreen GST-Six1/His-Eya2 binding, biochemical; hits give low values; control for the full effect not named in the record; activity change, % (test concentration not listed); 360,000 compounds, 0.56% hits; AID 651725, 2012; in the data active = activity change below about -65%; inconclusive = about -30% to -65%; inactive = above about -30%; also: % is scaled to controls: 0 for no effect and ±100 for the full control effect
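Compounds are tested against tagged Six1 and Eya2 proteins bridged by glutathione donor and nickel acceptor beads; after a one-hour incubation at 37 °C without light, AlphaScreen emission is recorded.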
PINK1 modulator = A Quantitative High throughput Screen to Identify Chemical Modulators of PINK1 Expression. PINK1 immunofluorescence, high-content cytometry, 24 h. Potency, µM (highest dose often 76.6 µM), inactives show at the highest dose activation (PINK1 increase), most hits filed as activators. 410,000 compounds, 0.2% hits; active = well fitted activation curve with a large enough effect; inconclusive = small, poorly fitted or top-dose-only effect; inactive = flat fitted curve, though single readings scatter; cell line not stated here;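 also: potency is read from the fitted curve at half-maximal effect; % of control where 0% means no effect; nearly all actives have a fitted effect of over 65% in size; a mitochondrial uncoupler was the plate control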
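PINK1 protein, normally rapidly degraded, was detected by immunofluorescence after 24 hour compound treatment of a stable cell line. Titration data (5 concentrations) came from laser-scanning cytometry, with CCCP-treated wells as controls.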
D2 ag = Beta-Arrestin HTS for Positive Allosteric Modulators of the Human D2 Dopamine Receptor: Agonists | D(2) dopamine receptor (Homo sapiens), P14416 | 360,000 compounds, 0.084% hits | activation, % (test concentration not listed) | DiscoveRx PathHunter D2 beta-arrestin, luminescence, 90 min; 100% = 57 uM dopamine signal; in the data active = activation above about 40%; inconclusive = about 15% to 40%; inactive = below about 15%; also: compound concentration not given in the record; the text of the record calls up to 30% inactive
Target sequence (P14416 whole entry, looked up): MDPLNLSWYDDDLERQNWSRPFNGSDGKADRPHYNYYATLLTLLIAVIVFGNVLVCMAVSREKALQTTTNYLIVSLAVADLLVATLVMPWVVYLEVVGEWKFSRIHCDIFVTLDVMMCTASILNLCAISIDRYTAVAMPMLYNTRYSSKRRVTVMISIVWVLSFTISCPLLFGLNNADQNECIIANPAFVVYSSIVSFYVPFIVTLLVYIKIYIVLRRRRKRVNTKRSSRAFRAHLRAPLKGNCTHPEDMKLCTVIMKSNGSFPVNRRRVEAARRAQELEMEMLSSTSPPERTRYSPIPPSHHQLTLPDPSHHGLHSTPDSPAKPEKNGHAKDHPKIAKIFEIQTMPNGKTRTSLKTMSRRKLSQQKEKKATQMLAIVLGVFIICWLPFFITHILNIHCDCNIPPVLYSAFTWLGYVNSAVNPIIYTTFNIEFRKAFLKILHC
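Agonist mode: compounds alone added to overnight-plated D2 PathHunter cells for 90 min at 37 C, with 57 uM final dopamine (EC100) defining full response. Beta-arrestin recruitment detected by chemiluminescent reagent, read after 1 h at ambient temperature.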
The depositor's hits bear a star; ? = inconclusive; / = no result given; & = joins results of further samples; [ ] = dose if it differs, or a comment. A portion of the library; count on the stated rates, not on these rows.

SMILES	CtBP-E1A inh	TRPML1 agonist	TRPML1 blocker	Six1-Eya2 blk	PINK1 modulator	D2 ag
Cc1cccc(-c2nn3c(=O)cc(CN4CCN(C(=O)COc5ccc(Cl)cc5)CC4)nc3s2)c1	/	-0.7	-1	/	0.1%	/
O=C1/C(=C/c2ccncc2)N2CCC1CC2	0	-0.3	1	13	-0.8%	-2.4
O=C1C=C2C=C[C@@H]3CC2(O1)[C@H]1CCCCN31	5	0.1	-8	-1	11%	-3.9
Cc1cc(N2C(=O)C3CCCN3C2c2ccc(Cl)c(Cl)c2)no1 (stereo not drawn)	0	2.8	12	5	-0.2%	-2.7
COc1ccc(C)cc1NC(=O)c1cccn(Cc2cccc([N+](=O)[O-])c2)c1=O	/	-0.1	5	/	0.3%	/
CN(C)C(=O)Oc1ccc2nnc3ccnn3c2c1	-7	0.4	-10	-14	0.3%	-0.7
Cc1ccc(C2=NN(CCC(=O)N3CCC4(CC3)OCCO4)C(=O)CC2)cc1	0	0.6	18	4	2.5%	-0.1
C/C=C/CC1(CC)C(=O)NC(=S)NC1=O	/	-0.2	-1	10	0.7%	2.9
CC(C)CN1Cc2ccccc2-n2nncc2C1	6	-0.6	-2	4	0.6%	-8.6
O=C(NN=Cc1ccc(N(CCCl)CCCl)cc1)C(=O)c1c[nH]c2ccccc12	-26	3.6	0	-20	-3.1%	1.0
CCOC(=O)N1CCN(C(C)C(=O)c2c[nH]c3ccccc23)CC1 (stereo not drawn)	-1	0.0	-6	6	4.5%	-5.1
O=[N+]([O-])c1ccc(-[n+]2c(-c3ccccc3)cc(-c3ccccc3)cc2-c2ccccc2)cc1	/	-1.1	-7	-2	0.0%	-1.3
CC=C(CC)C1(CC)C(=O)NC(=S)NC1=O	3	0.3	-6	5	2.0%	8.4
CN1CCN(c2csc3ccc(F)cc3c2=O)CC1	/	-0.6	-26	/	0.6%	/
CC1(C)C(c2ccccc2)=NC(c2cccnc2)=[N+]1[O-]	8	0.1	13	4	0.4%	-0.5
COc1ccc2ccc(O)c(CN3CC=C(c4ccccc4)CC3)c2c1	/	2.7	5	-6	6.1%	-1.8
CCOC(=O)C1=C(C)N(C)C2(C)CC1c1ccccc1O2 (stereo not drawn)	-8	3.3	12	-2	-1.4%	-1.6
CC1=C2C3OC(=O)C(C)C3CC[C@@]2(C)C=CC1=O (stereo partly drawn)	0	-0.5	7	0	-0.5%&1.7%	-5.7
CC(CC(C)(C)N1CC1)=NO	-2	-0.1	19	2	-0.6%	-1.4
N/C(=N\[N+](=O)[O-])N1CCN(C(=O)c2ccccn2)CC1	3	-0.5	5	2	-0.3%	-6.8
CCCNC(=O)N1[C@H]2CC[C@@H]1C(C(=O)OC)=C(c1ccc(-c3ccccc3)c(F)c1)C2	-1	-0.1	13	-3	?	-0.8
CC(C)Cc1nnc(NC(=O)CCC(=O)N2CCC3(CC2)OCCO3)s1	2	0.8	-16	18	0.0%	1.4
Cc1cc(OCC(=O)N2CCN(CCc3ccccn3)CC2)cc(C)c1Cl	/	0.1	-9	/	1.8%	/
CCOC(=O)C(=O)NC1CCSC1=O (stereo not drawn)	-1	0.5	40	1	-5.4%[38.3 µM]	0.3
CCN(CC)CCCN=Cc1c(O)n(-c2cccc(C)c2C)c(=O)[nH]c1=O	-1	0.8	9	4	1.2%	-1.2
O=c1[nH]c(=S)n(-c2ccccc2)c(O)c1/C=N/N1CCCCC1c1cccnc1 (stereo not drawn)	4	0.6	-5	-3	0.5%	-2.3
CC12CCCCC1N(O)CN2O (stereo not drawn)	1	0.3	15	-1	0.3%	-1.9
Clc1ccccc1CN1CCN(c2ccccc2)CC1	1	1.8	-10	-12	3.6%[38.3 µM]	/
C[C@]12CCC3C(CC[C@H]4C[C@@H](O)CC[C@]34C)C1C[C@@H](O)[C@]2(C)O (stereo partly drawn)	4	-0.7	4	12	1.3%	1.6
CCCCc1nc2ccccc2c(=O)n1-c1ccccc1O	2	1.0	7	14	0.2%	-4.3
COC(=O)C1=C(c2c(C)noc2C)C[C@@H]2CC[C@H]1N2C(=O)N1CCCCC1	8	0.6	9	2	0.1%	-1.5
c1cc2c(cc1CCNC1CCCCCC1)OCO2	1	-0.5	6	-7	1.0%	-2.3
O=C(NC(=S)N1C[C@H]2C[C@H](C1)c1cccc(=O)n1C2)c1ccc(Cl)cc1	2	/	/	3	0.0%	-3.1
COc1ccc(OCC(=O)Nc2ccc(Cl)cc2C(=O)c2ccccc2)cc1	2	1.9	-16	1	-0.4%	-3.7
COC(=O)[C@@H]1N=C(c2ccc(OC)cc2)O[C@]12C(=O)N(C)c1cccc(Cl)c12	-2	-0.5	/	1	-0.1%	/
OC[C@H]1O[C@@H](n2cnc3cc(Cl)c(Cl)cc32)[C@H](O)[C@@H]1O	1	-0.6	-2	2	4.1%	-7.1
Cc1ccc(-n2c(O)c(C=NCCC3=CCCCC3)c(=O)[nH]c2=O)cc1	2	-0.8	-19	0	0.0%	3.8
CC(=O)OC1CCC2(C)C(CCC3C4CC(N5CC5)C(C(C)=O)C4(C)CC(=O)C32)C1 (stereo not drawn)	-7	1.1	35	5	0.5%	0.2
COc1cc(C(=O)Nc2ccc(Br)cc2C(=O)c2ccccc2Cl)cc(OC)c1OC	1	-0.3	4	-11	8.4%	-3.5
CCCS(=O)(=O)N1CCCC(C(=O)N2CCC3(CC2)OCCO3)C1 (stereo not drawn)	1	0.0	40	12	1.1%	-2.7
C[C@]12CCC3C(CC[C@H]4C[C@H](OC(=O)c5cccnc5)CC[C@]34C)C1CCC2=O (stereo partly drawn)	-1	0.8	16	-5	2.5%	3.3
Cc1ccc(-n2c(/C=C/c3cc(Br)cs3)nc3ccccc3c2=O)cc1	/	0.3	-9	/	2.1%	/
CCC1C2CC3C4N(C)c5ccccc5C45CC(C2C5O)N3[C@@H]1O (stereo partly drawn)	/	2.4	18	4	-0.1%	-0.2
CN1CCC23c4c5ccc(O)c4O[C@@H]2[C@H](O)C=CC3C1C5 (stereo partly drawn)	4	-0.4	1	-2	-0.1%	2.3
COc1ccc(CNC(C)Cc2cccs2)cc1 (stereo not drawn)	6	-1.4	0	2	0.3%	-4.8
CCC(C)N1C(=O)/C(=C/c2ccc3c(c2)CCN3CCCCl)C(=O)NC1=S (stereo not drawn)	-3	0.9	-14	-12	2.1%	0.5
COc1nc(NC(C)C)nc(NC(C)C)n1	3	5.0	17	-2	-1.2%&2.0%	0.0
COP(=O)(OC)Oc1ccc(C(O)C(Cl)(Cl)Cl)cc1 (stereo not drawn)	6	-0.5	6	6	-0.5%	-4.1
O=C1CCN(C(=O)Cc2ccccc2[N+](=O)[O-])CC1	12	0.1	11	0	-1.3%	-2.6
CP(C)(=O)CCC(=O)O	15	-0.4	-16	8	1.7%	-1.3
CN1CCN(c2nc(Cl)ncc2F)CC1	-3	0.7	-6	5	0.6%	-1.8
N#Cc1cc2c(nc1SCC(=O)Nc1ccc(C(F)(F)F)cc1)C1CCN2CC1	/	-0.5	3	/	1.5%	/
Cn1c(O)c(C=NC2CCCCC2)c(=O)[nH]c1=S	4	-0.4	-14	-8	0.9%	-5.4
CN(Cc1ccccc1)C(=C(Cl)Cl)/C(=C1/NCCN1Cc1ccc(Cl)nc1)[N+](=O)[O-]	6	-0.9	-1	-5	1.0%[38.3 µM]	-1.9
C=CCn1c(O)c(C(C)=NCCCn2ccnc2)c(=O)[nH]c1=O	6	-1.0	-3	9	3.7%	-2.0
C#C[C@@]1(O)CCC2C3CCC4=C/C(=N/OCC(=O)NC(CCC(N)=O)C(=O)O)CC[C@]4(C)C3CC[C@@]21C (stereo partly drawn)	/	-0.5	-23	-4	0.6%	2.9
CC(Cc1ccccc1)NC(=O)/C=C/C(=O)O (stereo not drawn)	7	-0.3	-5	-2	-1.0%	-0.3
C/C(=N\NC(=S)Nc1ccccc1)c1c(O)n(C)c(=O)n(C)c1=O	4	3.4	-1	5	-0.4%	-3.6
O=c1[nH]c2ccccc2n1C1CCN(C(c2nnnn2C2CCCCC2)C2CC2)CC1 (stereo not drawn)	2	-0.3	/	0	-1.6%	12
Cc1cc(NC(=O)CCl)no1	-3	-0.3	-4	0	?	-2.0
(next part)
SMILES	CtBP-E1A inh	TRPML1 agonist	TRPML1 blocker	Six1-Eya2 blk	PINK1 modulator	D2 ag
COC(=O)C12CCc3c(ccc4cc(OC)ccc34)C1=CC(=O)C2 (stereo not drawn)	2	2.5	16	1	2.8%	4.8
O=C1NC(=O)N(Cc2ccccc2Cl)C(=O)/C1=C/N1CCOCC1	6	-0.1	-13	-2	3.5%	-1.4
O=c1[nH]c(=O)n(Cc2ccccc2)c(O)c1/C=N/NCCO	-6	0.4	-19	?	2.6%	3.7
Cc1ccc(OCC(=O)N2CCN(CCc3ccncc3)CC2)cc1	/	-0.2	21	/	0.4%	/
CC(C)c1cc(Br)c(NC(=O)Nc2cccnc2)c(Br)c1	-1	/	/	3	1.3%	-1.8
Cc1cc(=O)[nH]c(CCl)n1	2	0.4	-9	-1	-1.5%	-8.1
N#CCCn1cc(C(=O)Nc2ccc(F)cc2)c(-c2ccccc2)n1	/	-0.5	-6	-1	-1.3%	-2.6
CC1CN1P1(=O)OCC(C)([N+](=O)[O-])CO1 (stereo not drawn)	-2	0.0	-9	8	-5.8%	-1.1
CCN(CC)C(=O)c1ccc(NC(=O)c2cc(S(=O)(=O)N3CCCCCC3)ccc2OC)cc1	1	-1.0	4	-6	4.1%	3.2
CCc1cc(=O)[nH]c(SCCCF)n1	22	1.0	-8	3	2.8%	2.4
O=c1cccc2n1CC1CC2CN(CC(O)CN2CC3CC(C2)c2cccc(=O)n2C3)C1 (stereo not drawn)	-11	0.5	3	-1	1.2%	-0.5
COc1ccccc1CC1C(=O)C2CCN1CC2 (stereo not drawn)	4	1.1	7	7	1.2%	-1.7

Given as labelled records: entries from further up
CCN(CC)C(=O)c1ccc(NC(=O)c2cc(S(=O)(=O)N3CCCCCC3)ccc2OC)cc1
- CtBP-E1A inh = 1
- TRPML1 agonist = -1.0
- TRPML1 blocker = 4
- Six1-Eya2 blk = -6
- PINK1 modulator = 4.1%
- D2 ag = 3.2

Cc1ccc(OCC(=O)N2CCN(CCc3ccncc3)CC2)cc1
- CtBP-E1A inh = /
- TRPML1 agonist = -0.2
- TRPML1 blocker = 21
- Six1-Eya2 blk = /
- PINK1 modulator = 0.4%
- D2 ag = /

O=C1NC(=O)N(Cc2ccccc2Cl)C(=O)/C1=C/N1CCOCC1
- CtBP-E1A inh = 6
- TRPML1 agonist = -0.1
- TRPML1 blocker = -13
- Six1-Eya2 blk = -2
- PINK1 modulator = 3.5%
- D2 ag = -1.4

CCc1cc(=O)[nH]c(SCCCF)n1
- CtBP-E1A inh = 22
- TRPML1 agonist = 1.0
- TRPML1 blocker = -8
- Six1-Eya2 blk = 3
- PINK1 modulator = 2.8%
- D2 ag = 2.4
